Assay outcomes (PubChem BioAssay)
CapD inh: inhibitors of Bacillus anthracis CapD enzyme | purified CapD enzyme, fluorescence intensity read-out; hits give low values; some hits fall short of the stated cut | z-score (concentration not given with the values) | actives 0.23% (n = 140,000);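 active = z-score under -4 in either of two replicates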;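 also: stock transfer was 100 nL into about 40 µL; score is relative to mean and spread of the plate; one replicate is shown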
AID504770: E. coli YBA685 growth inhibition, screen for V. cholerae RctB inhibitors; E. coli YBA685 rctB-dependent plasmid, OD600 growth, 3 h; hits give low values; z-score (concentration not given with the values); actives 0.27% (n = 130,000);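 active = z-score under -2 on both plates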;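 also: wells of about 30 µL received 100 nL stock; score is relative to mean and SD of the test wells; the first replicate is given; strong numbers were not always called active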
Starred values were filed as active, the others as inactive; nt = not tested or not shown.

Molecule	CapD inh	AID504770
O=C1CC(c2cccc(F)c2)Sc2nc3ccccc3n21 (centres undefined)	-0.65	-0.05
COc1ccc(CCn2cnc(=O)c(C#N)c2/C=C/N(C)C)cc1OC	-1.11	nt
CC(=C(CCOP(=O)(O)O)SC(=O)c1ccccc1)N(C=O)Cc1cnc(C)nc1N	14.6	0.25
Clc1ccc(SCc2cc(N3CCOCC3)nc(-c3ccccc3)n2)cc1	-0.495	nt
O=C(Nc1cc(-c2ccc(Cl)cc2)nn1-c1ccc(F)cc1)C1CCC1	10.6	0.15
O=C(OCCN1CCOCC1)C(c1ccccc1)c1ccccc1	0.52	-0.3
CC(C)(C)C(=O)CN1C(=O)c2ccccc2C1=O	9.45	-0.15
COC(=O)c1c2c(n3ccc(C)cc13)C(=O)c1ccccc1C2=O	21	0.35
CCOC(=O)c1cnn2c(NC(=O)c3c(Br)cnn3C)c(C#N)nnc12	1.12	-0.95
O=C(O)c1ccccc1C(=O)NCc1ccccc1Cl	0.405	0
CCCCn1c2c(c(=O)n(C)c1=O)C(c1ccc(OC)cc1)N1CCCCCC1=N2 (centres undefined)	nt	-0.3
N#C/C(C(N)=O)=C1\Oc2c(cc(O)cc2-c2ccccc2)S1	0.12	-0.95
CSC1=NC(=O)/C(=C\c2cccc3ccccc23)S1	-0.62	-0.7
CC(=O)NCCNC(=O)OCCc1cccc(C)c1	-0.085	nt
O=C(OCCn1ncc2ccccc2c1=O)c1ccc2c(c1)CCO2	-0.03	-0.45
CC(C)N(C(=O)c1ccc2snnc2c1)C(C)C	-0.07	-0.4
Cc1cc(N2CCOCC2)cc(C)[n+]1[O-]	nt	-0.45
CCC(C)NC(=O)C1CCCN(c2nc(-c3ccc(OC)cc3)no2)C1 (centres undefined)	-0.12	-0.35
c1ccc(COc2ccc(C3Oc4ccccc4C4CC(c5ccccc5)=NN43)cc2)cc1 (centres undefined)	0.65	nt
Cc1cc(C)cc(COn2c(-c3ccc(Cl)cc3)nc3ncccc32)c1	3.48	nt
CC(C)Nc1nc(-c2ccccc2)nc(-n2ccnc2)n1	1.62	0.65
Nc1nc(N2CCCCC2)ncc1S(=O)(=O)c1ccc(Cl)cc1	4.67	-0.55
COC(=O)c1sc(SC)c(S(=O)(=O)C(C)C)c1N/N=C(\C#N)S(=O)(=O)C(C)C	-2.27	nt
CCCCN1C(=O)/C(=C/N(C(C)=O)c2ccccc2)SC1=S	0.115	-1.1
O=S(=O)(c1ccc(F)cc1)N1CCN(c2ccc(-c3ccccc3)nn2)CC1	0.11	nt
CC(C(=O)NC1CCCC1)N(c1ccc(F)cc1)S(C)(=O)=O (centres undefined)	-0.325	-0.95
C=CCN1C(=O)Cc2c1nc(N)c1c(N)nc(N3CCN(C(=O)c4ccco4)CC3)c(C#N)c21	nt	0.5
CCC1(C)CC(CCNCc2ccc(N(C)C)cc2)(c2ccc(F)cc2)CCO1 (centres undefined)	0.065	nt
CN(C)N1C(=O)c2cccc3c(Br)ccc(c23)C1=O	-0.475	-0.8
CCCn1c(SCC(=O)N2CCCc3ccccc32)nnc1C(C)C	nt	-0.1

Single values from the entries so far:
AID504770 result of CCCCN1C(=O)/C(=C/N(C(C)=O)c2ccccc2)SC1=S : -1.1
AID504770 result of COC(=O)c1c2c(n3ccc(C)cc13)C(=O)c1ccccc1C2=O : 0.35
AID504770 result of C=CCN1C(=O)Cc2c1nc(N)c1c(N)nc(N3CCN(C(=O)c4ccco4)CC3)c(C#N)c21 : 0.5
AID504770 result of CN(C)N1C(=O)c2cccc3c(Br)ccc(c23)C1=O : -0.8

(cont.)
Molecule	CapD inh	AID504770
O=C(COC(=O)c1cccc(N2C(=O)C3C4C=CC(C4)C3C2=O)c1)c1ccc(Cl)cc1 (centres undefined)	-0.305	nt
CCOC(=O)C1(C#N)C(C#N)(C(=O)OCC)C1(C#N)C(=O)OCC (centres undefined)	-0.08	-0.9
Nc1nc(Nc2ccccc2)n(-c2ccccc2)c(=O)n1	-1.84	0.45
CN=C(Nc1cc(C)c(C)cc1C)SC	-1.12	nt
O=C(NC(Oc1ccccc1)(C(F)(F)F)C(F)(F)F)Oc1ccccc1	-0.285	-1.45
CSC1=NCCN1S(=O)(=O)c1ccc(NC(C)=O)cc1	-0.51	-0.55
O=C(Nc1ccccc1)N(Cc1ccccc1)c1cccc2ccccc12	-0.86	2.1
CCn1cc(CCC(=O)NC(C)c2ccccc2)c2ccccc21 (centres undefined)	0.545	0.6
COc1cc(Cl)c(C)cc1NC(=O)CC1CCCC1	nt	-0.8
Cc1ccc(-n2c(=O)/c(=C\c3ccc4c(c3)OCO4)s/c2=C(/C#N)C(=O)NCCN2CCOCC2)c(C)c1	nt	-0.55
COc1ccccc1/C=C1\SC(=O)N(CCC(=O)Nc2ccc(S(N)(=O)=O)cc2)C1=O	1.88	nt
CCOC(=O)C1=C(C)OC(N)=C(C#N)C1c1ccncc1 (centres undefined)	-0.055	nt
C=CCn1c(CNC(=O)c2cccs2)nnc1SCC(=O)Nc1ccc(C(=O)O)cc1	-0.17	1.05
Clc1ccc(CO/N=C/c2c(Cl)nc3sccn23)c(Cl)c1	-0.165	nt
O=C(Cn1cc(C(=O)C2CC2)c2ccccc21)NC1CC1	nt	-0.4
Cc1ccc(C(=O)N2CCSC2=S)cc1	-1.71	0.35
CCOc1ccc2nc(SCC(=O)N3CCCC3=O)sc2c1	nt	-1.15
COC(=O)Nc1sc(C)cc1C(=O)OC	0.53	-0.25
C=CCOc1ccccc1COC(=O)N1CCN(c2cc(C(F)(F)F)ccn2)CC1	68.4	nt
COC(=O)c1ccccc1-n1c(N)c(C#N)c(N)c(C#N)c1=S	1.01	-0.55
Cc1ccc(Sc2ncccc2C(=O)N2CCCCC2C(N)=O)cc1 (centres undefined)	nt	0.75
COc1cc(-c2[nH]nc3c2C(c2cc4c(cc2Br)OCO4)C(C#N)=C(N)O3)cc(OC)c1OC (centres undefined)	-0.695	nt
CNC(=O)CO/N=C/c1ccc(N(C)C)cc1	nt	2.25
Cn1c2ccccc2c2nnc(N3CCN(Cc4ccccc4)CC3)nc21	0.04	1.25
CN1CCC(N(C)S(=O)(=O)c2ccc(N)cc2)CC1	nt	-0.55
c1ccc2c(c1)CN1CCCC1=N2	nt	0.15
CCCCCCCCCCCCCCCCCCN1CNC(=S)NC1	0.17	nt
CCOC(=O)C(Cc1cc([N+](=O)[O-])c(Oc2ccc(OC)cc2)c([N+](=O)[O-])c1)NC(C)=O (centres undefined)	-0.51	nt
CC(C)C(=O)Nc1ccc(CN2CCCCC2)cc1	-0.26	2.15
O=S(=O)(c1cccc(F)c1)N1CCN(CC(O)COC(c2ccccc2)c2ccccc2)CC1 (centres undefined)	nt	0.15

(more compounds)
Each structure is followed by: CapD inh	AID504770
- CCOC(=O)C1=C(O)/C(=C/c2ccc([N+](=O)[O-])cc2)SC1=Nc1cccc(Cl)c1
→ 1.02	nt
- O=C(CSc1ncccn1)NC1CCCCCC1
→ 0.38	1
- Cc1cccc(C)c1Nc1c(-c2cc(Br)ccc2O)nc2nc[nH]n12
→ 0.55	-0.45
- CC(=O)Oc1cc(OC(C)=O)c2c3c(c(=O)oc2c1)CCCC3
→ 6.03	-3.3
- O=C(CN1CCc2ccccc2C1)N(C1CCCCC1)C1CCS(=O)(=O)C1 (centres undefined)
→ nt	0.15
- Nc1nccnc1C(=O)OCC(=O)c1csc(N2CCCCC2)n1
→ nt	0.35
- O=C(NNC(=O)c1cnn(-c2ccc([N+](=O)[O-])cc2)c1C(F)(F)F)c1ccsc1
→ -0.755	nt
- CCc1cc2cc(C(=O)Nc3ccccc3)sc2s1
→ nt	0.75
- O=C(O)CC12OC3C4C5CC(C6C5C3C61)C42 (centres undefined)
→ 0.625	-1
- Cn1c(-c2ccccc2)c(C(=O)COC(=O)c2ccc(Br)o2)c2ccccc21
→ nt	1.2

Profiles as entered above.
`CCCCn1c2c(c(=O)n(C)c1=O)C(c1ccc(OC)cc1)N1CCCCCC1=N2` (centres undefined) is listed with CapD inh: nt; AID504770: -0.3
`CC(C)Nc1nc(-c2ccccc2)nc(-n2ccnc2)n1` is listed with CapD inh: 1.62; AID504770: 0.65
`O=C(OCCN1CCOCC1)C(c1ccccc1)c1ccccc1` is listed with CapD inh: 0.52; AID504770: -0.3

Remaining list, next part
Each structure is followed by: CapD inh	AID504770
- COC(=O)C1=C(C(=O)OC)SC(=C2C(=S)C(C)(C)N(C(=O)c3ccccc3I)c3cc(OC)ccc32)S1
→ -0.195	nt
- COc1cccc(NC(C)C(=O)N2CC(C)OC(C)C2)c1 (centres undefined)
→ nt	-0.4
- CCOCC(O)CSc1ccccc1 (centres undefined)
→ 0.43	-1.05
- O=C1N(Cc2cccc3ccccc23)c2ccccc2C12NN=C(c1ccccc1)S2 (centres undefined)
→ -0.47	nt
- O=C1CCS(=O)(=O)CC1
→ nt	-0.5
- CCOP(=S)(OCC)C1(C#N)CC1
→ nt	0
- CN1CCCN(C(=O)c2ccc(Oc3ccccc3)cc2)CC1
→ -0.155	0.6
- COc1ccc(C2C(C(=O)c3ccc(Cl)cc3)N3c4ccccc4C=CC3C2(C#N)C#N)cc1 (centres undefined)
→ 4.5	nt
- O=S(=O)(c1ccc2ccccc2c1)N1CCCCC1
→ -0.305	-0.15
- CCN(CC)C(=O)C1Sc2nnc(-c3ccccc3)n2NC1c1ccc(C)cc1 (centres undefined)
→ 0.015	-0.45
- ON/C=N/c1ncc(C(F)(F)F)cc1Cl
→ -1.05	-0.35
- CC(O)c1ccc(OCc2c(F)cccc2Cl)cc1 (centres undefined)
→ -0.27	2.25
- COc1ccc(CN=C(Nc2ccccc2)SC2CC(=O)NC2=O)cc1 (centres undefined)
→ -1.46	0.25
- Cc1ccccc1CNC(=O)CCC(=O)N1CCSc2ncccc21
→ -1.05	0.6
- CCc1cc2c(SCC(=O)Nc3ccc(S(=O)(=O)N4CCOCC4)cc3)ncnc2s1
→ nt	0.2
- COCCN1CCC(OC(C)=O)C(C)C1C (centres undefined)
→ 0.2	0.1
- CN(C(=O)COc1cccc(CO)c1)c1ccccc1
→ 0.03	0.7
- O=C(Cn1c(C(F)(F)F)nc2ccccc21)NN=C1CCCC1
→ nt	0.05
- Cn1cnnc1SCC(=O)N1c2ccccc2Sc2ccc(C(F)(F)F)cc21
→ -0.155	nt
- CC(=O)c1ccc(N2CCN(C(=O)CCCCCn3c(=S)[nH]c4ccc(Br)cc4c3=O)CC2)cc1
→ -0.725	nt

3 compounds out of the list, sorted by count of non-hydrogen atoms, ascending.
Each structure is followed by: CapD inh	AID504770
- ON/C=N/c1ncc(C(F)(F)F)cc1Cl
→ -1.05	-0.35
- O=C(Cn1c(C(F)(F)F)nc2ccccc21)NN=C1CCCC1
→ nt	0.05
- CC(=O)c1ccc(N2CCN(C(=O)CCCCCn3c(=S)[nH]c4ccc(Br)cc4c3=O)CC2)cc1
→ -0.725	nt

(list continues)
Each structure is followed by: CapD inh	AID504770
- C=CCn1c(N)c(C#N)c2nc3ccccc3nc21
→ nt	1.1
- O=C(O)c1cn2c(n1)sc1ccccc12
→ -0.445	nt
- O=C(O)C(F)(F)c1ccccc1
→ -0.285	nt
- Cc1c(NC(=O)c2oc(=O)c3ccccc3c2-c2ccccc2)cccc1-c1nc2ncccc2o1
→ -0.485	nt
- CN1CC2CCC1CC(NC(=O)c1ccccc1)C2 (centres undefined)
→ 0.7	-0.05
- C=CCn1c(C)cc(C(=O)COC(=O)Cn2[nH]c(=O)c3ccccc3c2=O)c1C
→ nt	-0.05
- CN1CCN(c2nc3c(c(=O)[nH]c(=O)n3C)n2CC(=O)c2ccc(Br)cc2)CC1
→ 0.225	nt
- N#Cc1ccc(NC(=O)c2nc3ncccn3n2)cc1
→ nt	-0.4
- Cc1ccccc1NC(=O)/C(C#N)=C(\Nc1ccccc1)SCc1ccc(Cl)cc1
→ -0.05	nt
- O=C1/C(=C/c2ccc(Cl)cc2)C=C(c2ccccc2)N1c1ccccc1
→ -0.195	nt
- O=C(Nc1ccccc1)c1cccnc1N1CCOCC1
→ -0.625	-0.9
- CN1C(=O)/C(=C/c2ccco2)N(C)C1=S
→ -2.72	-0.65
- CCOC(=O)Cn1nc(-c2nonc2N)nc1-c1nonc1N
→ 0.53	0.35
- COc1ccc(N2CC(O)(c3ccc(OC)c(OC)c3)[N+]3=C2CCCC3)cc1 (centres undefined)
→ -0.005	nt
- Cc1ccc(C)n1-c1ccc(C(=O)N/N=C/c2ccncc2)cc1
→ nt	0.9
- C(=C\c1nc2ccccc2[nH]1)/c1nc2ccccc2[nH]1
→ 42.5	nt
- COc1ccc(OC)c(NC(=O)c2cc(S(=O)(=O)N3CCN(c4ccccc4Cl)CC3)ccc2F)c1
→ 0.365	nt
- N#CC1=C(N)Oc2n[nH]c(-c3cccs3)c2C12C(=O)N(CC(=O)O)c1ccccc12 (centres undefined)
→ 0.27	nt
- CCOc1nc(C#N)nc(N2CCCCC2)n1
→ 0.82	-0.65
- CC(=O)NCCc1csc(-c2ccccc2)n1
→ 0.525	1.05
- COc1ccc(N2C(SC)=NC(=Nc3ccccc3)C23CCCCC3)cc1
→ -0.28	nt
- N#C/C(=C(/O)c1cc2ccccc2o1)c1nc2ccccc2s1
→ nt	-2.55
- O=C(NCCCNC1CCCCC1)c1ccc(/C=N/O)nc1
→ 0.295	-0.8
- FC(F)(F)c1ccc2nnn(OCc3nnc(-c4ccccc4)o3)c2c1
→ nt	0.05
- COCCn1cnc2c1c(=O)n(CC(=O)OCC(=O)NC1CCCC1)c(=O)n2Cc1ccccc1
→ nt	-0.15
- COc1ccc(N2C(=O)NC(=O)/C(=C\c3ccccc3OCCBr)C2=O)cc1
→ 2.33	nt
- CC(C)c1ccc(OCc2ccc(C(=O)N(C)C)o2)cc1
→ -0.205	-0.85
- O=C(N/N=C/c1c[nH]c2cnc(OCc3ccccc3)cc12)c1ccc(F)cc1
→ 0.775	nt
- COC(=O)C1=C(C)OC(N)=C(C#N)C1c1ccc([N+](=O)[O-])cc1 (centres undefined)
→ -0.135	nt
- COc1ccc(CCCOC(=O)Nc2cc(C(C)(C)C)ccc2O)cc1
→ -0.675	nt
- CCCN(CCC)C(=O)Nc1ccc(CC)cc1
→ 1.2	1.55
- CC1(C)CC2CC(C)(CN2C(=O)CSCC(=O)O)C1 (centres undefined)
→ -1.41	1.65
